Screening data as filed in PubChem BioAssay.
HCMV NEC inh: inhibitors of HCMV UL50-UL53 nuclear egress complex interaction | HTRF UL50-UL53 interaction, normalized percent inhibition | inhibition, % (concentration not given with the values) | actives 0.15% (n = 190,000);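 active = both replicates at 50% or more, plus weaker picks with an unusually low signal ratio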;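 note: stock transfer was 100 nL into about 20 µL; 0% = negative control wells and 100% = wells with untagged competitor protein; inactives centre near -12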
GIV Gai3 FP: GIV-Galpha-i interaction inhibition. percent of control (FP), % (concentration not given with the values). actives 0.42% (n = 210,000). P08753. Galpha-i3/FITC-GIV peptide fluorescence polarization, 90 min; active compounds read low; scaled: aluminum fluoride 0%, vehicle 100%;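 active = replicate mean at 85% of control or lower, very high polarization wells dropped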;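 note: wells of about 15 µL received 100 nL stock; the first replicate is given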
Target sequence (P08753 whole entry, looked up): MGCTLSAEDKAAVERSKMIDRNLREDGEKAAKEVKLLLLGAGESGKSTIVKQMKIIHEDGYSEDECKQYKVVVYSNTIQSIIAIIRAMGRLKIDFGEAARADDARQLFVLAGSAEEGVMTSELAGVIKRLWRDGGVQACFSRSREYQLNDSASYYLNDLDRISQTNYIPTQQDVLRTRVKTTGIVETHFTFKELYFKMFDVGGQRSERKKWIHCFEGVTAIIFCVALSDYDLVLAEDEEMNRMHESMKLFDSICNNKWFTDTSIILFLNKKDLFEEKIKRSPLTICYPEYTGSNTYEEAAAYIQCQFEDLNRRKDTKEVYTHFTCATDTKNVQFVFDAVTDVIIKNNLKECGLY
Sa growth 42C: blocks Staphylococcus aureus growth. S. aureus RN4220 growth, OD600, 20 h, 42 °C; active compounds read low. relative growth, % (no concentration beside the values). actives 0.53% (n = 170,000). AID 720641;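 active = growth at 42 °C up to 50% and 20 or more points under that at 30 °C, or under 10% at both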;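 note: 300 nL library stock went into each well; scaled to the means of positive and negative controls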
Sa growth 42C second temp: also measured in Sa growth 42C; calls as there; relative growth, %; measured here: growth at 30 °C;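 optical density after 20 h as mean of two plates; 100% = untreated growth and lower means inhibition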
An asterisk follows results filed as active; nt = not tested or not shown; & = joins results of further samples.

mol	HCMV NEC inh	GIV Gai3 FP	Sa growth 42C	Sa growth 42C second temp
COc1ccc(Br)c2c1OCCO2	-6.1	nt	75.7	97.6
CNC(=O)C1CCN(C(=O)N2CC(C)Oc3ccc(Cl)cc32)CC1 (stereo not drawn)	-7.6	103.3	113.9	93.8
COc1ccc2ccc(Oc3ncccn3)cc2c1	-15.4	nt	92.1	96.1
COc1ccc(CNc2ncnc3c2cnn3-c2ccc(Cl)cc2)cc1	nt	100.7	101.0	93.8
CSc1nsc(SCC(=O)N2CCCC2)n1	-31.4	103.9	93.6	82.6
N#Cc1ccccc1NC(=O)Nc1ccc(CN2CCOCC2)cc1	-43.0	101.5	93.5	101.6
NC(N)=N/N=C/c1ccccc1C(F)(F)F	-20.2	nt	98.9	88.1
CS(=O)(=O)Nn1cnc2ccccc2c1=O	-10.7	105.1	101.2	76.9
COc1ccc2nc(C)cc(N3CCOCC3)c2c1	-13.7	nt	113.5	79.4
O=C(/C=C/c1ccccc1)NC1CCSC1=O (stereo not drawn)	-12.6	107.7	89.1	121.5
CNC(=O)CCCn1nc(C)c2c(C)n(-c3ccc(C)cc3)nc2c1=O	-16.4	116.5	92.7	100.0
Cc1cccc(-n2cc(-c3ccccc3)c3c(N4CCC(C)CC4)ncnc32)c1	nt	99.8	94.0	85.5
O=C1c2ccc(-c3nc4ccccc4c(=O)o3)cc2C(=O)N1c1cccnc1	-10.4	94.9	107.1	114.5
CSc1nc(C2CC2)nc(C2CC2)c1C#N	-3.6	108.4	107.9	88.2
O=C(NCCc1ccccc1)Nc1cccc(-c2noc(C3CCC3)n2)c1	-38.9	103.6	nt	nt
COc1ccc(S(=O)(=O)NCC(c2ccco2)N2CCOCC2)cc1C (stereo not drawn)	nt	90.7	87.8	92.9
COC(=O)c1ccc(Cn2c(=O)cc(C)c3c(C)nn(C)c32)cc1	nt	96.9	72.2	89.6
Cc1ccc(NC(=O)CN2C(=O)c3ccccc3Sc3ccc(C(=O)N4CCCC4)cc32)cc1	nt	103.6	122.6	65.2
CCc1ccc(CNC(=O)c2ccc(NC(=O)N3CCSc4ncccc43)cc2)cc1	nt	102.2	93.6	93.9
CCn1c(CN(C)CCOc2ccc(OC)cc2)nc2cc(S(=O)(=O)N(C)C)ccc21	-32.4	nt	82.4	85.4
CC(C)CN(CC(C)C)CC(O)Cn1cnc2c1c(=O)n(C)c(=O)n2C (stereo not drawn)	5.2	109.2	102.4	99.6
O=S(=O)(Nc1ccc(O)cc1)c1ccc2ccccc2c1	-3.3	nt	90.4	105.6
Cc1ccc(C(=O)CN(c2nc3nc(C)c(Cl)c(C)n3n2)S(=O)(=O)c2ccc(C)cc2)cc1	0.5	101.9	nt	nt
COc1ccc(-c2cc(C(F)(F)F)n3nccc3n2)cc1	2.5	103.0	107.9	102.8
COCCCNC(=O)c1c(NC(=O)c2cc(=O)c3cc(C)c(C)cc3o2)sc2c1CCCC2	24.4	108.2	88.9	93.9

Profiles, quoted from the list. Values in the order: HCMV NEC inh	GIV Gai3 FP	Sa growth 42C	Sa growth 42C second temp
Listed for COc1ccc(CNc2ncnc3c2cnn3-c2ccc(Cl)cc2)cc1 → nt	100.7	101.0	93.8
Listed for COc1ccc2nc(C)cc(N3CCOCC3)c2c1 → -13.7	nt	113.5	79.4

Next part:
mol	HCMV NEC inh	GIV Gai3 FP	Sa growth 42C	Sa growth 42C second temp
CCOC(=O)/C=C1\SCC(=O)N1CCSc1nc(C)cs1	11.8	nt	103.7	106.6
O=C(Nc1ccc(F)cc1F)c1cc(-c2cccnc2)on1	-11.5	100.1	nt	nt
CCOc1ccc(N2CC(c3nc4ccccc4n3CCCOc3ccccc3OC)CC2=O)cc1 (stereo not drawn)	-1.1	112.8	88.7	92.5
Cc1cccc(CCNC(=O)c2ccc3c(c2)nc2n3CCC(C)C2)c1 (stereo not drawn)	nt	101.8	110.2	88.6
O=C(OCc1ccc(-c2cc(C(F)(F)F)cc(C(F)(F)F)c2)o1)c1ccc2c(c1)CCO2	-29.6	98.9	90.8	85.2
COC(=O)c1ccccc1NC(=O)CSc1nc2ccsc2c(=O)n1CCC(C)C	nt	98.8	89.7	87.5
OCCNc1nc2nonc2nc1Nc1ccccc1	-62.6	105.3	nt	nt
CC(C)CCNC(=O)c1cnc(N2CCOCC2)nc1	-12.7	100.3	nt	nt
O=C(O)CCCC(=O)Nc1ccccn1	2.0	nt	98.5	94.0
Cc1ccc(S(=O)(=O)NN2C(=O)c3ccccc3NC23CCCC3)cc1	1.2	102.9	113.8	96.0
CCc1nn(CC(=O)Nc2cc(Cl)c(OC)cc2OC)c(=O)c2cc3sccc3n12	-1.5	103.7	93.3	87.3
COc1cc2c(cc1OC)-c1cc(=Nc3c(C)cc(C)cc3C)n(C)c(=O)n1CC2	-44.6&0.5&-19.1&-42.6	100.4&99.5	92.1	78.2
Cc1ccc2nc(NC(=O)CSc3ncc(C(=O)Nc4ccc(F)cc4)c(=O)n3C)sc2c1	nt	103.8	125.3	98.2
COc1ccc(COC(=O)C2=C(C)NC3=C(C(=O)CCC3)C2c2cc(Br)c(O)c(OC)c2)cc1 (stereo not drawn)	-3.5	108.8	nt	nt
CC1=CCC2C(=O)N(CCc3c[nH]c4ccccc34)C(=O)C2C1 (stereo not drawn)	-9.5	104.8	115.5	82.1
COc1ccc(-c2[nH]c3ccccc3c2SCCNC(=O)c2ccc(S(=O)(=O)N(C)C)cc2)cc1	-3.9	105.6	107.2	92.5
O=S(=O)(NN1CCOCC1)c1ccc(Br)cc1	-12.8	103.5	102.2	91.4
CCc1nc2nc(C)cc(Nc3cc(Cl)ccc3OC)n2n1	-2.4	108.9	97.9	91.5
CC1(C)C(=O)Nc2ccccc2N1C(=O)COC(=O)c1cc(S(=O)(=O)N2CCOCC2)ccc1F	-10.1	nt	94.4	82.1
Nc1nn(-c2ccccc2)nc1C(=O)OCc1ccc(Cl)cc1	0.2	105.5	107.3	93.1
O=C1N(CN2CCCCC2)c2ccccc2C12OCCCCO2	-2.8	98.8	89.8	89.9
Fc1cc(Br)ccc1N=Cc1ccco1	-36.2	nt	81.5	52.0
Cc1oc2c(cc(NS(=O)(=O)c3ccc(Br)cc3)c3ccccc32)c1C(=O)OCc1ccccc1	-38.4	110.8	95.3	78.8
CCc1ccc(NC(=O)c2cnn(-c3ccccc3)c2-n2cccc2)cc1	-12.4	100.1	96.1	89.0
O=C(NC1CCN(c2nc3ccccc3s2)CC1)C1CCN(c2cnccn2)CC1	-14.2	99.9	nt	nt

Next entries
mol	HCMV NEC inh	GIV Gai3 FP	Sa growth 42C	Sa growth 42C second temp
Cc1ccccc1-c1noc(CSc2nc(-c3ccc(F)cc3)cc(=O)[nH]2)n1	nt	100.0	86.5	86.1
CCOc1ccccc1C=Nc1ccc(Br)cc1	-6.9	nt	93.5	94.9
CN(C(=O)c1ccco1)c1ccccc1C(=O)NCCc1ccccc1	10.5	106.7	94.5	103.4
Cc1ccc(S(=O)(=O)N2CCCc3cc(C(=O)NCC4CCCO4)ccc32)cc1 (stereo not drawn)	-10.8	100.7	nt	nt
S=C(c1nc2ccccc2[nH]1)N1CCOCC1	nt	95.6	114.7	79.6
CCOc1ccc(OCC)c(NC(=O)CC(C)n2nc(C)cc2C)c1 (stereo not drawn)	nt	94.1	103.3	86.7
CN=C1SC(CC(=O)NC(N)=O)C(=O)N1C (stereo not drawn)	-3.6	105.9	114.5	86.3
COC(=O)c1ccccc1NC(=O)c1cc2ccccn2n1	nt	102.0	78.8	86.3
Cc1cc(C)cc(NC(=O)NCC2CCN(Cc3cc(C)ccc3C)CC2)c1	20.8	103.5	104.4	93.8
CCOC(=O)c1ccc(NS(=O)(=O)c2ccc3c(c2)CCN3C(=O)CC)cc1	-13.9	106.5	111.8	81.3
CN(C(=S)S)C1CCS(=O)(=O)C1 (stereo not drawn)	-13.9	103.0	100.2	69.2
O=C(COc1ccccc1)Nc1ccc2nc(SCCOc3ccccc3)sc2c1	-4.2&8.2	99.9&98.7	105.0	85.8
CC1CCCCN1S(=O)(=O)c1ccc2c(c1)oc(=O)n2CC(=O)NC1CCCCCCC1 (stereo not drawn)	-1.8	nt	111.7	97.7
O=C(Nc1cccc(-c2nc3ncccc3o2)c1)c1sc2ccccc2c1Cl	-15.0	108.1	nt	nt
Brc1cccc(OCCSc2ncccn2)c1	-0.9	96.3	95.0	79.8
CN1CCN(c2ccc(-c3ccc(NS(=O)(=O)c4ccc(Br)cc4)cc3)nn2)CC1	-41.4	99.4	nt	nt
O=C(CSc1nc2ccccc2s1)Nc1ccncc1	-6.0	nt	70.6	71.8
CC1=C(C(=O)NCc2cccc(F)c2)C2(CCCCCC2)OC1=O	nt	100.2	91.2	96.9
CCOC(=S)SCc1nc(-c2ccc(Cl)cc2)no1	4.8	103.1	104.8	99.2
COc1ccc(-c2nn(-c3ccccc3)cc2C=C2C(=O)CC(C)(C)CC2=O)cc1	nt	103.5	124.4	96.8
CCC1CCCCN1C(=O)CSc1cnc2ccccc2n1 (stereo not drawn)	-31.4	nt	113.6	91.2
O=C(O)CC(CC(=O)Nc1ccccn1)c1ccccc1 (stereo not drawn)	-20.0	101.6	90.3	79.8
c1cc(C2NCCc3[nH]cnc32)ccn1 (stereo not drawn)	-70.5	98.8	nt	nt
C=CCc1c(C)nn(-c2nc(CC(=O)Nc3cccc(C)n3)cs2)c1C	-29.4	108.6	nt	nt
C=CCn1c(C2CCCN2C(=O)CC)nc2ccccc21 (stereo not drawn)	-21.1	105.2	nt	nt

5 compounds picked at random from the list so far:
mol	HCMV NEC inh	GIV Gai3 FP	Sa growth 42C	Sa growth 42C second temp
CC1=C(C(=O)NCc2cccc(F)c2)C2(CCCCCC2)OC1=O	nt	100.2	91.2	96.9
CCC1CCCCN1C(=O)CSc1cnc2ccccc2n1 (stereo not drawn)	-31.4	nt	113.6	91.2
COC(=O)c1ccccc1NC(=O)CSc1nc2ccsc2c(=O)n1CCC(C)C	nt	98.8	89.7	87.5
Cc1cccc(CCNC(=O)c2ccc3c(c2)nc2n3CCC(C)C2)c1 (stereo not drawn)	nt	101.8	110.2	88.6
COc1ccc(COC(=O)C2=C(C)NC3=C(C(=O)CCC3)C2c2cc(Br)c(O)c(OC)c2)cc1 (stereo not drawn)	-3.5	108.8	nt	nt

(listing goes on)
mol	HCMV NEC inh	GIV Gai3 FP	Sa growth 42C	Sa growth 42C second temp
Cc1cc(C(=O)Oc2cccc(Cl)c2)n(C(C)(C)C)n1	8.8	106.9	89.4	90.3
FC(F)(F)c1nc2cc3c(cc2[nH]1)OCCO3	8.9	102.5	nt	nt
C=CCN1CCN(C(=O)c2csc(CCC)c2)CC1	-18.3	98.8	107.5	99.4
COc1ccc(-n2c(C)cc(CNS(=O)(=O)c3ccc4c(c3)CC(=O)N4C)c2C)cc1	-14.2	118.8	nt	nt
Cc1ccccc1NC(=O)NCCCN1CCCC1	nt	100.8	95.8	91.1
CCCC1=Nc2cc(C(=O)NCCCN3CCN(C)CC3)ccc2Sc2ccccc21	4.4	103.9	103.2	97.0
Cc1csc(-c2cc3ccccc3oc2=O)n1	-59.4	104.3	125.4	83.4
O=C(c1cccc(F)c1)N1CCOCC1	-9.6	98.1	121.6	109.2
O=C(O)c1ccccc1S(=O)(=O)c1ccccc1C(=O)O	-5.5	110.3	100.9	91.9
Cc1sc2ncn(CC(=O)Nc3ccccc3)c(=O)c2c1C	-16.9	nt	105.0	83.8
Cc1csc2ncnc(N3CCN(S(=O)(=O)c4cccc(C(F)(F)F)c4)CC3)c12	-40.6	101.2	97.7	89.6
CN(C)c1ccc(NC(=O)c2nc(-c3ccccc3)n(-c3ccc(Cl)cc3)n2)cc1	-5.7	97.7	nt	nt
O=C(c1cccc(C(F)(F)F)c1)c1ccc2ccccc2n1	2.0	106.2	107.7	95.7
CC1CC(c2ccccc2)n2nc(N)nc2N1 (stereo not drawn)	15.0	106.6	83.0	87.9
O=C(CCCCl)Nc1ncnc2c1cnn2-c1ccccc1	6.5	nt	97.2	87.7
COc1ccc(NC(=O)C(Cc2ccccc2)NS(=O)(=O)c2cccc3cccnc23)cc1 (stereo not drawn)	nt	98.4	95.0	81.2
CC(NCc1c(C(=O)O)n(C)c2ccccc12)C12CC3CC(CC(C3)C1)C2 (stereo not drawn)	nt	102.6	119.3	88.3
CC(C)(C)C(=O)CNS(=O)(=O)c1ccc(S(=O)(=O)N2CCCC2)cc1	-8.6	93.0	74.5	97.9
O=S(=O)(Cc1ccccc1)N1CCN(Cn2c(SC(F)F)nc3ccccc32)CC1	-32.9	nt	84.2	90.8
O=C(Cn1c(=O)c2ccccc2n2nncc12)Nc1ccc(Br)cc1	nt	96.2	105.0	95.4
CC(C)NC(=O)Cn1ncc2c1-c1ccccc1OC2	5.6	99.4	92.4	86.8
O=C(Oc1ccc2c(c1)OCO2)c1ccncc1	-19.6	nt	111.3	88.8
O=C(CSc1nc(SCC(=O)c2ccccc2)c2ccccc2n1)c1ccccc1	-25.1	104.4	95.2	82.6
Cn1nc(NCc2ccc(Cl)cc2)c(=O)n(C)c1=O	-16.1	nt	106.3	99.3
Cc1nnc(SCC#N)n1-c1ccccc1	-2.3	nt	96.0	89.1
